Screens: PubChem, several laboratories
CSC inhib = blocks cancer stem cells | cancer stem cell-like cells viability, luminescence | inhibition, % at 7.5 µM | 300,000 compounds, 1.1% hits | AID 2717;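 active = mean at 75% or more and at least half the replicates too; inconclusive = mean and replicates disagree; tested in HMLE shEcad cells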;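 note: 0% = median of negative and 100% = median of positive control wells; the first replicate is given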
Yeast UUG start = yeast start codon fidelity modulation; S. cerevisiae UUG-firefly luciferase reporter, luminescence/redox ratio; activity score, % at 18.7 µM; 350,000 compounds, 0.13% hits; AID 602363;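 active = replicate mean at a twofold rise or more, about +100% in these data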;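 note: firefly luciferase made from a UUG start codon reports start codon fidelity; reporter light over untreated wells divided by growth signal over untreated wells; some hits fall short of that in this replicate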
MT1-MMP act inh = MT1-MMP (human) activation inhibition | HT1080 RFP-PRO-GFP cells, GFP/RFP ratio fluorescence, overnight; percent of plate control window, DMSO zero | P50281 | GFP/RFP ratio change, % at 20 µM | 360,000 compounds, 0.061% hits;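 active = GFP/RFP ratio change of at least 30% with cell ATP level not reduced by more than half and red fluorescence within 50% of control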; note: strong numbers were not always called active
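Assay system: HT1080 RFP-PRO-GFP cells | Dosing: 20 µM single dose, 1% DMSO | Incubation: Cells overnight before dosing, compound overnight, 37 °C, 5% CO2 | Evaluation: GFP/RFP fluorescence ratio | Control set: DMSO-only wells and HT1080 RFP-L50D-GFP cell wells as references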
Rce1 inh = inhibitors of yeast Ras-converting enzyme; Q03530; AID 2563; yeast membranes, quenched prenylated peptide cleavage fluorescence; calls only; 290,000 compounds, 0.27% hits;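 active = fall in fluorescence gain of 50% or more versus controls, with final raw signal at or below 3038400; inconclusive = same 50% fall but final raw signal above 3038400; inactive = fall in fluorescence gain under 50%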;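 note: plate controls were neutral control wells for no effect and wells lacking membranes for full effect; tested at 10 µM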
Target sequence (Q03530 whole entry, looked up): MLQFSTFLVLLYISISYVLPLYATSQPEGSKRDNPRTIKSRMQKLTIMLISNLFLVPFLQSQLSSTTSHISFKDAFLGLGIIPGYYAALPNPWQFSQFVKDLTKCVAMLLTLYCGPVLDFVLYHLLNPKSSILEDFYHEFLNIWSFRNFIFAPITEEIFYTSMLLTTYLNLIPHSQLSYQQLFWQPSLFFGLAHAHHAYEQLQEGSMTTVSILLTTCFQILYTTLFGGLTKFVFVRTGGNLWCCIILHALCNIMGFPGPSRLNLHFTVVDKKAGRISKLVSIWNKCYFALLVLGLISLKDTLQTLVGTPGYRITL
PABP FP inh = blocks human PABP binding to poly(A) RNA | fluorescence polarization | inhibition, % at 35 µM | 290,000 compounds, 1% hits | P11940;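 active = 50% or more with normal probe brightness, or confirmed in later tests; inconclusive = above 50% with abnormal brightness, or retests that disagree; inactive = below 50% or failed in later tests; about a fifth of its hits are not listed in these tables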;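 note: calls also rest on retests at 20 µM and on dose response follow-up; controls were probe without protein and protein plus probe with vehicle; some compounds called inactive have numbers as strong as hits; many hits fall short of the cut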
eIF4H inh = inhibitors of RNA binding by human eIF4H; eIF4H fluorescence polarization binding assay; inhibition, % at 35 µM; 290,000 compounds, 0.94% hits;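 active = 50% or more with normal probe brightness, or confirmed in later tests; inconclusive = above 50% with abnormal brightness, or retests that disagree; inactive = below 50% or failed in later tests; about a fifth of its hits are not listed in these tables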;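 note: calls also rest on retests at 20 µM and on dose response follow-up; 0% = protein and probe with vehicle and 100% = probe without protein; strong numbers were not always called active; many hits fall short of the cut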
Env fusion inh = HIV envelope-mediated fusion inhibition; HeLa-JRFL Env/CEM21 cell fusion, luciferase; 360,000 compounds, 1.1% hits; inhibition, % at 12.3 µM;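 active = mean replicate inhibition score of at least 50 and every replicate individually at or above 50; inconclusive = only one of the two criteria met; inactive = mean below 50 and not all replicates reaching 50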;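 note: 0% = plate neutral controls and 100% = maraviroc near 300 nM; one replicate is shown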
eIF4H inh retest = recorded beside eIF4H inh, whose call it bears; inhibition, %; compound at 20 µM; confirmation average;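 mean of two retest wells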
PABP FP inh retest = further read-out of PABP FP inh, marked with its call; inhibition, %; compound at 20 µM; confirmation repeats;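 mean of two retest wells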
MT1-MMP act inh RFP = second read-out of MT1-MMP act inh, no call of its own (marks repeat the call); RFP signal change, %; measured here: RFP expression control read;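 0 = vehicle wells; hits needed this value within 50% of zero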
Starred values were filed as active, the others as inactive; i = inactive; u = inconclusive; x = not tested or not shown.

SMILES	CSC inhib	Yeast UUG start	MT1-MMP act inh	MT1-MMP act inh RFP	Rce1 inh	PABP FP inh	eIF4H inh	Env fusion inh	others
COc1cccc(C(=O)NC2=NCCS2)c1	-1	-38	2	4	i	3	-5	-18
O=C(Nc1c(Cl)cccc1Cl)c1cc(-c2ccco2)on1	x	-20	-2	2	i	-4	-3	-6
Cn1cc(Br)c(C(=O)NC(=S)Nc2ccc(S(N)(=O)=O)cc2)n1	x	x	-2	2	i	-4	2	-103
CC(C)OC(=O)Nc1ccc(Oc2c(F)c(F)c(F)c(F)c2F)cc1	3	-5	-2	-3	i	1	-3	x
Cc1noc(C)c1CSc1nnc2cc(C)c3ccccc3n12	0	x	x	x	i	0	-11	x
Cc1ccc(NC(=O)C(C)OC(=O)c2ccc(NC(=O)CC#N)cc2)cc1S(=O)(=O)N1CCOCC1 (stereo unspecified)	-6	-9	-4	2	i	x	x	-77
Cc1ccc(-c2cc3nc(NCCc4ccncc4)n(C)c(=O)c3s2)cc1	x	-13	-2	-2	x	x	x	-106
Cc1ccccc1C(=O)NC1CCN(CC(=O)NCc2ccccc2)CC1	27	-10	1	3	i	-10	-10	19
CCOC(=O)c1ccc(CNC(=O)c2n[nH]c(=O)c3ccccc23)o1	-1	-5	0	-3	i	6	-4	10
Cc1ccc(S(=O)(=O)Cc2ccc(C(=O)N3CCCC3)o2)cc1	-3	-8	-2	0	i	-4	-5	-15
O=C(CO/N=C/c1ccccc1O)NNC(=O)c1ccccc1Cl	11	5	1	7	i	-6	10	-11
O=S(=O)(Cc1ccccc1)N(O)c1ccccc1	0	-21	0	5	i	6	-17	3
Cc1ccc(S(=O)(=O)NC[C@H]2O[C@@H](n3cnc4c(N)ncnc43)[C@H](O)[C@@H]2O)cc1	x	-16	4	3	x	x	x	-4
Cc1ccc(C)c(Nc2nc3ccccc3[nH]2)c1	x	-10	3	4	x	x	x	12
COc1cc(C(=O)NC2CCN(Cc3nnnn3Cc3cccs3)CC2)cc(OC)c1OC	-12	4	-4	-1	i	-3	-1	-3
COc1ccc(-c2cc(C(=O)Nc3ccc(C)c(N)c3)c3ccccc3n2)cc1	37	-9	2	-5	i	12	-2	-111
N#CC(c1ccccc1O)N1N=C(c2ccccc2)CC1c1ccccc1 (stereo unspecified)	36	-18	5	3	i	-6	0	-10
N#Cc1sc2nc3c(c(-c4cccnc4)c2c1N)CCC3	-4	-14	-2	-6	i	-4	5	x
Cc1ccc(S(=O)(=O)/N=C(/Nc2ccc([N+](=O)[O-])cc2[N+](=O)[O-])c2ccccc2)cc1	40	x	1	-13	x	x	x	5
COc1ccc(CCNC(=O)C2CCN(S(=O)(=O)c3ccc(OC)c(OC)c3)CC2)cc1	7	0	0	-6	i	-7	-13	11
O=C(CN1CCN(C(=O)c2cccc(S(=O)(=O)N3CCCC3)c2)CC1)Nc1cccc(F)c1	x	-6	2	-2	x	x	x	3
Cc1nn(C)c(C)c1CNC(=O)Nc1ccc(Cl)cc1	-14	-28	-1	2	i	u	-2	-15
Cc1cc(C)n(-c2nc(SCC(=O)O)c3c4c(sc3n2)COC(C)(C)C4)n1	12	x	7	7	i	6	-6	22
Cc1onc(-c2c(F)cccc2Cl)c1C(=O)NC1CCSC1=O (stereo unspecified)	-7	-15	5	6	i	5	-4	-107
C=CCn1c(SCc2ccc(Cl)c(Cl)c2)nnc1C(CO)NC(=O)c1ccc(OC)cc1 (stereo unspecified)	-8	x	4	-2	i	-7	1	x
CCS(=O)(=O)N1CCCC(C(=O)NCCCN2CCCC2=O)C1 (stereo unspecified)	-2	-21	1	2	x	-5	-6	x
COCCOC(=O)N/C=C\c1nc2ccccc2c(=O)[nH]1	8	x	0	2	i	-2	-4	-13
COc1ccc(C(=O)N/N=C/c2ccc(OC(=O)c3cccc4ccccc34)c([N+](=O)[O-])c2)cc1	13	x	9	1	i	2	6	7
O=C1CC(N2CCN(Cc3ccc4c(c3)OCO4)CC2)C(=O)N1Cc1ccc(N2CCCC2=O)cc1 (stereo unspecified)	-10	-10	-3	-3	i	-1	-4	8
COc1ccc2c(c1)CCC1C2=NN(/C(C)=C\C(C)=O)C1c1ccc(F)cc1 (stereo unspecified)	-6	x	-16	6	i	-8	-8	-14
CN1CCN(S(=O)(=O)c2ccc(N(C)Cc3cccc(F)c3)nc2)CC1	2	-10	-3	-1	x	x	x	-3
Cc1cc(C)c2nc(N(CCCN(C)C)C(=O)c3ccc(S(=O)(=O)N4CCCCCC4)cc3)sc2c1	0	3	-2	-3	i	x	x	-8
O=C(Cc1ccc(NC(=O)C2CCN(C(=O)C3CCC3)CC2)cc1)Nc1cccc(C(=O)N2CCCCC2)c1	x	6	3	7	x	x	x	17
COc1ccc(CCN2CC(O)=C(c3nc4ccccc4c(=O)[nH]3)C2=N)cc1OC	-19	-22	8	-1	x	5	25	-35
CC1(C)CC(=O)C(Sc2ccccc2[N+](=O)[O-])=C(O)C1	-8	-14	-1	2	i	4	7	-18
O=C(CCSc1ccc(Cl)cc1)N1CCN(S(=O)(=O)c2ccccc2)CC1	-14	-6	-5	-5	x	x	x	0
Cc1cnc([N+](=O)[O-])n1CCOC(=O)NC(=O)c1ccc(F)cc1	-10	x	-3	5	i	-1	0	-2
Cc1cc(C)n2nc(SCC(=O)N/N=C/c3ccccc3F)nc2n1	10	-9	7	3	i	-6	10	x
Cc1c(C(=O)N2CCC3(CC2)CC(=O)c2ccccc2O3)cccc1[N+](=O)[O-]	-5	-6	-3	-5	i	x	x	4
Cc1ccc(F)c(CNC(=O)C2CCC(=O)N(CCN3CCOCC3)C2)c1F (stereo unspecified)	0	-19	-13	-2	i	14	-5	-11
COC(=O)CCC(=O)Nc1cccc(Br)c1	-13	-12	5	8	i	6	-9	x
CCCC1=NN(C(=O)C(=O)Nc2ccc(Br)cc2)C(O)(C(F)(F)F)C1 (stereo unspecified)	41	x	0	-7	i	1	2	1
Cc1ccc(S(=O)(=O)CCOC(=O)CNC(=O)OCc2ccccc2)cc1	x	2	1	1	x	x	x	9
CCOC(=O)/C(C#N)=C1/C=CN(c2ccc(C)cc2)C=N1	-14	-12	3	2	i	-10	-9	-84
O=C(COc1ccc2c3c(c(=O)oc2c1)CCC3)Nc1ccc(CCO)cc1	-4	-22	5	-3	i	8	27	-7
CCNC(=O)COC(=O)CCNC(=O)c1cccc(C)c1	-11	-15	-1	1	i	0	8	16
Cc1cc(Cn2nc(C(=O)NCC3CC3)cc2-c2ccccc2)on1	8	-6	1	1	i	x	x	21
Cn1c(=O)[nH]c(=O)c2c1nc(Br)n2CCCc1ccccc1	x	x	x	x	i	0	-7	x
CC[C@H](C)[C@@H]1NC(=O)c2cc([N+](=O)[O-])cc(F)c2NCCCC[C@@H](C(N)=O)NC(=O)[C@H](CC(N)=O)NC1=O	-16	-10	4	5	x	-4	-9	8
CCCC(=O)Nc1nc2ccc(NC(=O)c3c(F)c(F)c(OC)c(F)c3F)cc2s1	92*	2	1	-15	i	9	7	-211
C[C@H]1CN(S(=O)C(C)(C)C)[C@H](CCO)/C1=C\CCO (stereo partly specified)	x	-15	4	4	x	x	x	26
CCCN(CC1CC1)S(=O)(=O)c1ccc(-n2cnnn2)c(OC)c1	12	-10	4	-1	i	10	9	14
CCOC(=O)C(Cc1ccccc1)c1ccnc2ncnn12 (stereo unspecified)	0	x	1	8	i	-5	5	12
N#Cc1c(/N=C/N2CCCC2)oc(-c2ccccc2)c1-c1ccccc1	127*	-6	-7	-13	i	11	-9	x
CC(=O)Nc1ccc(-c2ccnc3c2CC(C(=O)NCCc2ccccc2)O3)cc1 (stereo unspecified)	x	-17	0	-3	x	x	x	-3
CCOc1ccccc1C1C(C#N)=C(N)Nc2onc(-c3ccccc3)c21 (stereo unspecified)	-12	-18	0	-2	i	6	4	x
COc1ccc(S(=O)(=O)N2CCC(C(=O)NCCC(=O)Nc3cccc(OC)c3)CC2)cc1	-14	-9	4	-3	i	-1	-9	2
O=C(Nc1cccc(-c2ccc3nncn3n2)c1)c1ccco1	-9	-27	-1	3	i	0	-2	-11
Cc1ccccc1NC(=O)c1cccc(N2C(=O)C3C4CCC(C4)C3C2=O)c1 (stereo unspecified)	-14	9	4	0	i	-7	-4	0
O=C1COc2ccc(S(=O)(=O)NCc3ccc(Cl)cc3)cc2N1	x	-12	1	1	i	-1	0	-9

A draw from above in order of formula weight, lowest first.
SMILES	CSC inhib	Yeast UUG start	MT1-MMP act inh	MT1-MMP act inh RFP	Rce1 inh	PABP FP inh	eIF4H inh	Env fusion inh	others
O=S(=O)(Cc1ccccc1)N(O)c1ccccc1	0	-21	0	5	i	6	-17	3
O=C(CO/N=C/c1ccccc1O)NNC(=O)c1ccccc1Cl	11	5	1	7	i	-6	10	-11
COc1cc(C(=O)NC2CCN(Cc3nnnn3Cc3cccs3)CC2)cc(OC)c1OC	-12	4	-4	-1	i	-3	-1	-3

Remaining list, next part:
SMILES	CSC inhib	Yeast UUG start	MT1-MMP act inh	MT1-MMP act inh RFP	Rce1 inh	PABP FP inh	eIF4H inh	Env fusion inh	others
Cc1ccc(OCCNC(=O)C2CCCCC2)cc1	0	x	3	8	i	-3	4	14
Cc1ccc(S(=O)(=O)Cn2nnnc2C(C(C)C)N2CCN(Cc3ccco3)CC2)cc1 (stereo unspecified)	x	-5	-5	1	i	-1	-5	-77
CC(C)Cc1nnc(NC(=O)CCC(=O)N2CCN(c3ccccn3)CC2)s1	6	-14	-5	-7	i	0	7	-9
O=C(c1cc(-c2ccncc2)nc2ccc(Br)cc12)N1CCN(c2ccccn2)CC1	37	6	-2	-3	i	-7	-2	x
Cc1csc(NC(=O)CSc2nnc(-c3ccncc3)n2C)n1	-10	3	4	3	i	-7	-5	-61
COC(=O)COc1ccc(S(=O)(=O)Nc2ccc(C(N)=O)cc2)cc1	-14	-5	3	-1	i	7	-2	-10
COc1ccccc1N1CCN(C(=O)c2ccc(S(=O)(=O)N3CCCCCC3)cc2)CC1	0	11	4	-7	i	2	-4	x
CC1CCN(CCC(=O)N/N=C/c2ccc([N+](=O)[O-])cc2)CC1	8	-5	1	0	i	11	0	8
O=C(CSc1nnc(-c2ccccc2)n1Cc1ccccc1)N1CCCC1	-17	-2	-8	-2	i	-5	2	-188
CC1(C(=O)NS(=O)(=O)c2ccc(Br)cc2)CCN1C(=O)CCc1ccccc1 (stereo unspecified)	x	-6	-2	3	x	x	x	11
Cc1ccccc1C(=O)Nc1c(C(=O)N2CCN(C)CC2)cnn1-c1ccccc1	-3	-28	-2	-1	i	-1	-8	-2
O=C1c2cc(S(=O)(=O)NCCO)ccc2-c2ccc(S(=O)(=O)NCCO)cc21	-6	x	-1	1	i	-5	10	6
COc1ccc(CSc2nnc(C)s2)cc1F	-6	-10	3	6	i	7	-4	-5
CCC(=O)Nc1cccc(NC(=O)c2ccc(C)cc2Cl)c1	x	x	0	-2	i	-2	8	-2
O=C(Nn1c(C2CCCCC2)nc2ccccc2c1=O)c1ccc([N+](=O)[O-])cc1	2	x	-2	-10	i	1	-10	10
CN1CCN(c2ccc(CNS(=O)(=O)c3ccsc3)cc2)CC1	36	-10	-5	1	i	27	59	-11	eIF4H inh retest=-13;PABP FP inh retest=5
Cc1c(N(CC(=O)O)S(=O)(=O)c2ccccc2)c(=O)n(-c2ccccc2)n1C	-1	x	-2	1	i	0	-7	0
